# gsp agonist: agonists of gsp mutant (McCune-Albright syndrome); gsp mutant cells, cAMP HTRF, 30 min; control for the full effect not named in the record; Potency, µM (doses to about 76.9 µM), for the others: at the highest dose activation (cAMP increase), actives largely listed as activators; hit rate 0.13% among 340,000; AID 624287; active = well fitted activation curve with a large enough effect; inconclusive = small, poorly fitted or top-dose-only effect, or another doubt; inactive = no such curve, though single readings can be large or run the other way; cell line not stated here;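 further: phosphodiesterase inhibitor Ro 20-1724 added with compounds to block cAMP breakdown; potency means the concentration at half of the fitted maximal effect; nearly all actives have a fitted effect of over 60% in size; about a fifth of the inactives were tested at one dose only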
#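 Cells stably selected in G418 were plated at 2000/well, grown 16-24 hr, then given compounds in DMSO with the PDE inhibitor […] (300 uM solution added) for 30 min at 37C; cAMP was read by HTRF.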
# ClpP mod: qHTS Assay for Activators of ClpP; ATP-dependent Clp protease proteolytic subunit (Bacillus subtilis (strain 168)), P80244; purified B. subtilis ClpP, FRET peptide cleavage, 20 min; Potency, µM (series often up to 57.5 µM), without a hit: top-dose activity change, negative = active; hit rate 1.9% among 340,000; active = well fitted falling curve with a large enough effect; inconclusive = small, poorly fitted or top-dose-only effect; inactive = no such curve, though single readings can be large or run the other way; further: potency means the concentration at half of the fitted maximal effect; the source files actives as falling curves though it sought activators and does not explain the sign; nearly all actives have a fitted effect of over 65% in size; many hits overshoot -100%
# Target sequence (P80244 whole entry, looked up): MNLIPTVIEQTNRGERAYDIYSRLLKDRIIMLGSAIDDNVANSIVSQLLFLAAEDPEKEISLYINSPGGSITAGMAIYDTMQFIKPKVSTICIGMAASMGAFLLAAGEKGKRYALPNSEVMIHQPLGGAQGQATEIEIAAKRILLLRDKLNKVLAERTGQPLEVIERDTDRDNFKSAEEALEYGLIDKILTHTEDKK
#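 Buffer: 100 mM Tris/HCl pH8, 100 mM KCl, 0.05% low protease BSA, 2.5% glycerol, 0.01% Tween-20. ClpP 10 microg/mL final; 20 min RT; delta FRET normalized to ADEP and DMSO controls.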
# Menin MLL FP FL: displaces fluorescein MLL peptide from human menin; Fluorescence polarization, fluorescein-MLL peptide displacement from menin; FP activity change, % at 61.4 µM; 290,000 tested, under 10 active; AID 1766; inconclusive = falling polarisation curve, or a change in total fluorescence; inactive = total fluorescence flat and polarisation flat or rising; no compound was filed as active; the % refers to the polarisation; negative = inhibition;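 further: % of control where 0% means no effect; inhibitors lower the polarisation; unlabelled MLL peptide was the positive control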
# Sfp inh: blocks B. subtilis Sfp PPTase activity | AID 1490 | Potency, µM, for the others: max response, negative = inhibition, usual class: inhibitors | hit rate 3.5% among 310,000 | Biochemical Sfp PPTase activity, qHTS | Q9F4F7; active means well fitted inhibition curve with a large enough effect; inconclusive means small, poorly fitted or top-dose-only effect, or another doubt; inactive means no such curve, though single readings can be large or run the other way;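 further: the enzyme is Sfp with the accession as filed and its product quenches rhodamine fluorescence; potency means the concentration at half of the fitted maximal effect; 0% = enzyme reaction without inhibitor and -100% = no enzyme wells; top concentration of the series not given in the record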
#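 Buffer: 50 mM Hepes-Na pH 7.6, 10 mM MgCl2, 0.01% Nonidet P-40, 0.01% BSA. Enzyme 15 nM, pre-exposed to compound 15 min; substrates then added and fluorescence change tracked over 30 min.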
# CtBP-E1A blk: CtBP/E1A binding inhibition. AlphaScreen GST-E1A/His-CtBP binding, 1536-well; stronger effect = lower value; control for the full effect not named in the record. activity change, % (concentration not given with the values). hit rate 0.49% among 340,000; in the data active means activity change below about -65%; inconclusive means about -30% to -65%; inactive means above about -30%; further: on the % scale 0 is the no-effect control and ±100 the full control effect
#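 Steps: dispense buffer (Tris pH 8.0, NaCl 300 mM, TCEP 1 mM, BSA, Tween 20); add 5X protein mix (GST-E1A, His-CtBP, 125 nM each); pin 23 nL compound; 2 h at 37 °C, dark; add 5X beads (50 ug/mL); 1 h; read.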
# gsp antagonist: antagonists of gsp mutant (McCune-Albright syndrome) | Potency, µM (series often up to 76.9 µM), for the others: at the top dose activity change, negative = inhibition, most hits filed as inhibitors | gsp-mutant cells, cAMP HTRF, 30 min; control for the full effect not named in the record | hit rate 0.4% among 340,000; active = falling curve of any shape with a large fitted effect; inconclusive = falling curve, mostly with a smaller effect; inactive = flat or rising curve; cell line not stated here;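 further: intracellular cAMP measured with PDE inhibitor Ro 20-1724 present during compound exposure; potency means the concentration at half of the fitted maximal effect; on the % scale 0 is the no-effect control and ±100 the full control effect; nearly all actives have a fitted effect of over 65% in size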
#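 Cells in G418 medium, seeded 16-24 h, 37C; buffer exchange to DPBS + 1 mM CaCl2, 0.5 mM MgCl2, 0.05% BSA; cpds in DMSO + […] (300 uM stock), 30 min 37C; HTRF cAMP detection.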
# TRPV1 potentiator: enhances activation of the human vanilloid receptor TRPV1; Q8NER1; TRPV1-expressing cells, Fluo-8 calcium influx, capsaicin EC20 potentiation; host cell line not named in the record; control for the full effect not named in the record; potentiation, % at 8.33 µM; hit rate 0.02% among 320,000; active means potentiation above 80%; inconclusive means 30% to 80%; inactive means below 30%; further: 0% is about no effect
# Target sequence (Q8NER1 whole entry, looked up): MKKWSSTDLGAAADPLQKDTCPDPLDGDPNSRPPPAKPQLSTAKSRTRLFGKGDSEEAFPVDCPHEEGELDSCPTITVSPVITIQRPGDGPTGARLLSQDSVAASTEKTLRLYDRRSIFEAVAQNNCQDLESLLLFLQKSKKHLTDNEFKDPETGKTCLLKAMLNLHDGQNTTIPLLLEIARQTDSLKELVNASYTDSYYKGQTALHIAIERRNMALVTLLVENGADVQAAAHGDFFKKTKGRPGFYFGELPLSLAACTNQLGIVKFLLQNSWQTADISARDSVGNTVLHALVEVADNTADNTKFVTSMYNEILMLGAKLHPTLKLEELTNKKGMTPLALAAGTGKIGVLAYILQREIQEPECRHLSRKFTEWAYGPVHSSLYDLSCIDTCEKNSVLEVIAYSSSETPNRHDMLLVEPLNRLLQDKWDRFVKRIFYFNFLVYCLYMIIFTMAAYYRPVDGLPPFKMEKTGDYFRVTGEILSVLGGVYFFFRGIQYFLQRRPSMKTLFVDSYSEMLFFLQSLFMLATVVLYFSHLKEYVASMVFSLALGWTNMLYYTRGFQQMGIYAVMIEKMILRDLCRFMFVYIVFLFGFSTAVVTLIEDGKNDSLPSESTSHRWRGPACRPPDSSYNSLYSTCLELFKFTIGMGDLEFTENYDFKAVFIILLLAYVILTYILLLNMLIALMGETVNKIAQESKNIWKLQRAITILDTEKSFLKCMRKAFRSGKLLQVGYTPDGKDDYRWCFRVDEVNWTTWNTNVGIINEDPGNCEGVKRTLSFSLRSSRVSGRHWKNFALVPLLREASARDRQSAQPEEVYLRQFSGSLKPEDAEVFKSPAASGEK
#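 Cells expressing TRPV1 were dye-loaded with Fluo-8 and read kinetically: 10 s baseline, 3 min after compound (agonist portion), then 2 min after EC20 capsaicin (allosteric enhancer portion). Calcium-bound dye fluorescence at 480/520 nm.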
# * hit, by the source's call; ? = inconclusive; / = not tested or not shown; & = joins results of further samples; [ ] = remark or other dose. Hits appear at their usual frequency. About 5.3% of those tested had a hit in this group.
SMILES,gsp agonist,ClpP mod,Menin MLL FP FL,Sfp inh,CtBP-E1A blk,gsp antagonist,TRPV1 potentiator
O=C(c1ccc2ncsc2c1)N1CCCC(C(F)(F)F)C1 (centres undefined),-8%[15.4 µM],/,/,/,2,8%,0
O=C(CCCN=C1NS(=O)(=O)c2ccccc21)OCC(=O)c1ccc(Br)cc1,-1%[15.4 µM],1.5%,/,9%,4,-23%,-11
COc1ccc(C)cc1NC(=O)C(OC(=O)c1ccc([N+](=O)[O-])o1)c1ccccc1 (centres undefined),-16%,1.3%,0.7,2%,-9,?,5
Cc1ccc(OCCC(=O)OCC(=O)N2CC(=O)Nc3ccccc32)cc1,?,-3.5%,/,/,/,-6%,-2
COc1ccc(-c2nn(C)c(=O)c3ccccc23)cc1NC(=O)COc1ccccc1,-6%,-16%,2.9,-12%,-7,-12%,4
CCOC(=O)c1[nH]cnc1C(=O)Nc1ccc(C)cc1,?,?,-0.2,15%,/,-7%,-23
c1nnc2c3c4c(sc3ncn12)CCC4,?,-2.2%,1.8,-2%,39,15%,27
O=C(CN1CCc2ccccc2C1)Nc1ccc(Br)cc1,3%,-4.2%,-1.7,-8%,6,-5%,-19
COc1ccccc1C(=O)Nc1ccnn1C1CCN(CCC(C)c2ccc(C)o2)CC1 (centres undefined),28%,-1.4%,-4.7,50µM*,-9,-8%,-14
COc1cc(C2c3c(oc4ccccc4c3=O)C(=O)N2Cc2ccco2)ccc1O (centres undefined),-28%,-1.9%,0.0,-19%,-7,19%,5
CCOc1ccc(/C=C/C(=O)NCc2ccccc2)cc1,0%,-17%,4.5,-1%,6,2%,-25
CCCC(=O)NC(NC(=S)Nc1ccc(N=Nc2ccccc2)cc1)C(Cl)(Cl)Cl (centres undefined),12%[15.4 µM],-1.2%,4.1,16%,-6,-36%,3
CCOc1ccc(NC(=O)c2ccccc2NC(=O)CNC2CCCC(C)C2C)cc1 (centres undefined),11%,-17%,/,/,/,-1%,/
O=C(Nc1cccc(C(F)(F)F)c1)C1CCN(S(=O)(=O)c2cnc[nH]2)CC1,?,1.9%,-2.3,-3%,1,7%,-1
O=C(CCC(=O)N(CC(=O)NC1CCCCC1)c1ccc(F)cc1)Nc1nccs1,-3%,/,-1.2,9%,6,11%,8

# Part of the list above with just CtBP-E1A blk and TRPV1 potentiator.
compound | CtBP-E1A blk | TRPV1 potentiator
COc1ccccc1C(=O)Nc1ccnn1C1CCN(CCC(C)c2ccc(C)o2)CC1 (centres undefined) | -9 | -14
c1nnc2c3c4c(sc3ncn12)CCC4 | 39 | 27

# The listing continues:
SMILES,gsp agonist,ClpP mod,Menin MLL FP FL,Sfp inh,CtBP-E1A blk,gsp antagonist,TRPV1 potentiator
CC1=Nn2c(nc(-c3ccccc3)c2-c2ccccc2)N(CC(N)=O)C(=O)C1,-3%,-2.5%,5.6,-9%,5,4%[15.4 µM],-2
O=C(CCCC(=O)N(c1cccc(F)c1)C(C(=O)NC1CCCC1)c1ccc(O)cc1)Nc1ccccn1 (centres undefined),-4%[15.4 µM],-4.5%,-5.3,12%,-1,11%,-4
CCOC(=O)c1sc(N)c(C#N)c1CSc1nc2ccc(C)cc2[nH]1,0%,-6.0%,12,-5%,6,-6%[15.4 µM],8
COc1ccc(S(=O)(=O)N(CC(=O)NCc2ccco2)c2ccccc2OC)cc1,16%,/,-2.7,17%,1,-13%,11
CCC1CN(C(=O)NCc2ccc(C)cc2)c2ccccc2O1 (centres undefined),?,0.8%&-1.3%,-8.2,-10%,9,-4%,-18
CCCCCCCC1CC(=O)C=C(C)C1C(=O)OCC (centres undefined),5%[15.4 µM],/,6.2,-4%,9,0%,-14
CCCn1c(N)c(C(=O)CSc2nnc(-c3cccnc3)n2-c2ccc(C)cc2C)c(=O)[nH]c1=O,-9%,-2.7%,4.7,2%,-13,-7%,-11
O=C(CN1C(=O)C2C3C=CC(C3)C2C1=O)Nc1nc2ccccc2[nH]1 (centres undefined),-9%,0.7%,1.2,-2%,4,4%,3
O=C(O)COc1ccc(/C=N/NC(=O)c2cccc3ccccc23)cc1,-20%,/,-3.3,16%,-3,6%,13
CN(CC(=O)Nc1cccc(F)c1)C(=O)c1ccc(N2CCCC2)c([N+](=O)[O-])c1,-2%[15.4 µM],/,/,/,-7,-7%,-12
O=C(CCCc1c[nH]c2ccccc12)Nc1ccc2ccccc2c1,?,-1.2%,9.1,6%,-5,-6%,7
Cc1ccc(C)c(S(=O)(=O)NCc2ccc3c(c2)OCO3)c1,9%[15.4 µM],-1.8%,-1.8,-9%,-2,-2%,-5
Cc1ccc([N+](=O)[O-])cc1S(=O)(=O)Nc1ccc(-c2ccc(N3CCCC3)nn2)cc1,-32%[inhibitor],0.4%,/,/,7,-26%,-10
CCn1c(=O)cc(OCC(=O)N(C)c2ccccc2F)c2ccccc21,?,-7.5%,2.3,-9%,1,-7%,-8
COC(=O)c1ccc(Cc2ccc(C(=O)OC)o2)o1,2%,-0.1%,2.9,19%,9,3%,8

# Three of the entries above in order of their number in CtBP-E1A blk, ascending.
SMILES | CtBP-E1A blk
O=C(O)COc1ccc(/C=N/NC(=O)c2cccc3ccccc23)cc1 | -3
COc1ccc(S(=O)(=O)N(CC(=O)NCc2ccco2)c2ccccc2OC)cc1 | 1
CCOC(=O)c1sc(N)c(C#N)c1CSc1nc2ccc(C)cc2[nH]1 | 6

# (list continues)
SMILES,gsp agonist,ClpP mod,Menin MLL FP FL,Sfp inh,CtBP-E1A blk,gsp antagonist,TRPV1 potentiator
CC1CCN(S(=O)(=O)N2CCC(C(=O)NCCc3ccccc3)CC2)CC1,20%,0.2%,1.3,9%,-15,14%,0
Cc1ccc2c(c1)c1ncnc(N3CCc4ccccc4C3)c1n2C,4%,32µM*,2.5,?,-1,?,0
CN(Cc1nc2ccccc2s1)C(=O)c1ccc(F)cc1,-18%,/,-3.6,0%,5,9%,0
O=C(N/N=C1\CC(c2ccccc2)Oc2ccccc21)c1cccnc1 (centres undefined),3%[15.4 µM],-1.5%,6.1,-11%,7,3%,-13
Cc1ccc(Oc2ccc(NC(=O)C3=CC=CN4CCS(=O)(=O)N=C34)cc2)cc1,-24%,-2.7%,/,/,0,-16%,1
CN1CCN(c2oc(COc3ccc(-c4ccccc4)cc3)nc2C#N)CC1,?,-15%,3.6,32µM*,4,2%,23
COc1ccc(Br)cc1C(=O)Nc1ccc(N2CCCC2)cc1,-1%,/,-0.7,-5%,?,-8%,-6
O=C(NCCc1ccc(Cl)cc1)C1CCCN(S(=O)(=O)c2cnc[nH]2)C1 (centres undefined),-43%[inhibitor],-1.3%,7.6,-4%,1,4%,-8
COc1ccccc1NC(=O)NCc1ccc(C)n1C,-8%,-15%,-2.8,2%,4,-2%,-1
Cc1c(NC(=O)c2ccco2)c(=O)n(-c2ccccc2)n1C,-31%[inhibitor],0.2%,1.7,8%,/,5%,?
N=C1C=CC=C2C1=NC1(CCCCC1)N2O,?,0.7%,-2.4,8.9µM*,-2,?,-1
CC(C(=O)Nc1cccc(S(=O)(=O)N2CCOCC2)c1)N1CCN(C/C=C/c2ccccc2)CC1 (centres undefined),10%[15.4 µM],/,-2.2,14%,-22,-14%,1
C[C@H](CO)N1C[C@H](C)[C@H](CN(C)C)Oc2ccc(NS(=O)(=O)c3ccc(F)cc3)cc2CC1=O,?,-3.4%,/,/,5,5%,/
CC(C(=O)Nc1ccc(N2CCOCC2)cc1)N1C(=O)c2ccccc2C1=O (centres undefined),-24%,-0.2%,7.1,-8%,37,-9%,-22
CC1CC(C)CN(CC(O)COc2ccc3c(c2)CCC3)C1 (centres undefined),-19%,1.2%,-10,6%,-3,11%,-2

# Structures above that contain a CF3 group, in the order listed:
SMILES,gsp agonist,ClpP mod,Menin MLL FP FL,Sfp inh,CtBP-E1A blk,gsp antagonist,TRPV1 potentiator
O=C(c1ccc2ncsc2c1)N1CCCC(C(F)(F)F)C1 (centres undefined),-8%[15.4 µM],/,/,/,2,8%,0
O=C(Nc1cccc(C(F)(F)F)c1)C1CCN(S(=O)(=O)c2cnc[nH]2)CC1,?,1.9%,-2.3,-3%,1,7%,-1

# Later entries
SMILES,gsp agonist,ClpP mod,Menin MLL FP FL,Sfp inh,CtBP-E1A blk,gsp antagonist,TRPV1 potentiator
O=C(CN(C(=O)CNC(=O)c1cccs1)c1ccccc1F)NC1CCCCC1,-22%[15.4 µM],/,-3.3,6%,0,12%,5
O=C(NNC(=O)c1ccccc1[N+](=O)[O-])c1ccco1,-14%[15.4 µM],/,-0.1,14%,-27,-5%,-11
O=C(Cc1ccc(F)cc1)OCC(=O)c1cc2ccccc2o1,4%,0.2%,-0.9,-12%,9,-2%,-21
CC(=O)N1CCN(CC(=O)Nc2cc([N+](=O)[O-])ccc2Cl)CC1,11%[15.4 µM],/,-3.7,-1%,2,-3%,6
CCOc1ccc(N(CC(=O)NC(C)(C)C)C(=O)c2ccco2)cc1,-17%,-1.8%,-0.3,2%,-12,3%,2
COCCCN(C(=O)CSCC(=O)Nc1cccc(C)c1)c1c(N)n(Cc2ccccc2)c(=O)[nH]c1=O,5%[15.4 µM],0.7%,/,/,15,6%,-1
COc1ccc(-c2ccc(SCC(=O)NC3CCCC3)nn2)cc1,-7%,-1.6%,/,/,5,/,/
COc1cc(/C=N/NC(=O)C(=O)NCc2cccnc2)ccc1O,-23%,-1.0%,3.0,2%,0,6%,9
CCN1C=C(C(=O)OC)C(c2cccc(C)c2)C(C(=O)OC)=C1,11%,6.3µM*,5.5,1%,23,4%,-13
CCOc1ccc(C(=O)NCCc2ccc3c(c2)OCCO3)cc1,3%[15.4 µM],/,1.6,1%,/,-11%,-1
O=C(CCNC(=O)C1CCN(S(=O)(=O)c2ccc(F)cc2)CC1)NCc1ccccn1,25%,-0.1%,/,/,8,/,/
NC1=NC(c2cccc(O)c2)n2c(nc3ccccc32)N1 (centres undefined),-45%[inhibitor],-0.2%,4.4,-6%,13,6%,-7
COc1ccc(CNC(=O)C2CC(O)CN2C(=O)Nc2ccccc2)cc1 (centres undefined),14%[15.4 µM],-2.2%,0.0,5%,-11,6%,-1

# High-throughput results as filed in PubChem.
